Cruzain Triton: inhibitors of Trypanosoma cruzi cruzain with detergent; P25779; purified cruzain, Z-FR-AMC fluorescence, 0.01% Triton; Potency, µM, inactives show max response, negative = inhibition, hits mostly inhibitors; 200,000 compounds, 0.43% hits; AID 1478;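 also: plate controls were neutral wells for no effect and buffer without enzyme for full effect; nearly all actives have a fitted effect of over 40% in size; top concentration of the series not given in the record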
Target sequence (P25779 123-467 limits assumed): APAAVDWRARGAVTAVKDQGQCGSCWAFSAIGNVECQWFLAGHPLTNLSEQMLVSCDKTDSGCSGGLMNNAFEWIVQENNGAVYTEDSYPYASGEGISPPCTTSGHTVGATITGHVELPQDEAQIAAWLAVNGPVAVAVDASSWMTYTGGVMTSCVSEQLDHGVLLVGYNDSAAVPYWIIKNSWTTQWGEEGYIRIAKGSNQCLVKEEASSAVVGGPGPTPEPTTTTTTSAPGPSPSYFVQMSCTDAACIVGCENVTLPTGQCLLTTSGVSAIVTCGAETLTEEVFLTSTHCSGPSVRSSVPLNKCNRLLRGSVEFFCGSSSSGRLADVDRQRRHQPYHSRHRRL
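Detergent-containing arm of a paired screen for aggregation-based inhibition: 0.01% Triton X-100 present. Cruzain at 1.5 nM cleaved 2 uM Z-FR-AMC at pH 5.5 with 5 mM DTT; AMC fluorescence gain over 60 s measured activity.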
2A StopGo: lowers the luciferase signal of an FMDV 2A StopGo reporter; AID 1159524; Potency, µM (series often up to 57.9 µM), for inactives: top-dose signal change, negative = less light; 410,000 compounds, 1.2% hits; human cells with a luciferase reporter of 2A StopGo recoding; control for the full effect not named in the record; active = well fitted falling curve with a large enough effect; inconclusive = small, poorly fitted or top-dose-only effect; inactive = no such curve, though single readings can be large or run the other way; tested in HEK293T cells; also: % is scaled to controls: 0 for no effect and ±100 for the full control effect; nearly all actives have a fitted effect of over 45% in size; luciferase light after 4 h
NS1 function inh: influenza NS1 inhibition | S. cerevisiae slowed by influenza A NS1, growth recovery by OD600 | Potency, µM (titrated, usually from 46.1 µM), for the others: at the top dose activity, positive = more growth | 270,000 compounds, 0.4% hits; active means well fitted rising curve with a large enough effect; inconclusive means small, poorly fitted or top-dose-only effect; inactive means no such curve, though single readings can be large or run the other way; also: nearly all actives have a fitted effect of over 50% in size
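Growth recovery, yeast-based: influenza A NS1 expressed in S. cerevisiae causes slow growth, and suppressors are detected by OD600. The parent strain without NS1 is used as positive control.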
LASV entry inh: blocks Lassa virus binding to or entry into cells; Lassa virus pseudotype entry inhibition, cell reporter; control for the full effect not named in the record; Potency, µM (highest dose often 37.9 µM), for inactives: at the top dose activity change, negative = inhibition, hits mostly inhibitors; 300,000 compounds, 1.2% hits; AID 540256; active means well fitted inhibition curve with a large enough effect; inconclusive means small, poorly fitted or top-dose-only effect, or effect the other way; inactive means flat fitted curve, though single readings scatter; tested in HEK293 cells; also: % is scaled to controls: 0 for no effect and ±100 for the full control effect; nearly all actives have a fitted effect of over 50% in size; luciferase read-out
SARS PLP yeast: blocks SARS-CoV papain-like protease in a yeast assay; S. cerevisiae expressing SARS-CoV PLpro, growth rescue; control for the full effect not named in the record; Potency, µM (doses to about 32.9 µM), inactives show at the top dose activity, positive = growth rescue; 330,000 compounds, 0.19% hits; AID 485353; active means well fitted rising curve with a large enough effect; inconclusive means small, poorly fitted or top-dose-only effect; inactive means no such curve, though single readings can be large or run the other way; also: 0% is about no effect; nearly all actives have a fitted effect of over 55% in size; growth read by luminescence after 48 h
MARV entry inh: Marburg virus entry inhibition | Marburg virus pseudotyped entry inhibition, cell reporter; control for the full effect not named in the record; about a third of the inactives were read at about 46 µM | Potency, µM (top dose mostly 37.8 µM), for inactives: top-dose activity change, negative = inhibition, hits mostly inhibitors | 300,000 compounds, 1.8% hits; active = well fitted inhibition curve with a large enough effect; inconclusive = small, poorly fitted or top-dose-only effect, or effect the other way; inactive = flat fitted curve, though single readings scatter; tested in HEK293 cells; about a fifth of its hits are not listed in these tables; also: % is scaled to controls: 0 for no effect and ±100 for the full control effect; luciferase read-out
RE007 growth inh: less growth of the S. pombe RE007 Vpr strain; S. pombe RE007 Vpr strain, BacTiter-Glo ATP luminescence, 24 h; control for the full effect not named in the record; 360,000 compounds, 0.21% hits; Potency, µM (series often up to 92.2 µM), without a hit: top-dose activity change, negative = less growth; active = well fitted falling curve with a large enough effect; inconclusive = small, poorly fitted or top-dose-only effect; inactive = no such curve, though single readings can be large or run the other way;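 also: % is scaled to controls: 0 for no effect and ±100 for the full control effect; nearly all actives have a fitted effect of over 50% in size; the assay follows cell death caused by Vpr and the record does not say whether a fall means rescue or toxicity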
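Fission yeast RE007 carrying one integrated HIV-1 vpr copy, seeded at OD 0.01 in PMG+AL medium with 23 nL pinned compound. Grown 24 h at 30 degrees; viability read by BacTiter-Glo luminescence after 5 min.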
Cruzain noTriton: blocks cruzain activity in detergent-free assay; P25779; purified cruzain, Z-FR-AMC fluorescence, no detergent; Potency, µM, for inactives: max response, negative = inhibition, actives largely listed as inhibitors; 200,000 compounds, 2.3% hits;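 also: plate controls were enzyme without inhibitor for no effect and buffer without enzyme for full effect; nearly all actives have a fitted effect of over 40% in size; top concentration of the series not given in the record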
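Detergent-free condition (0.00005% Triton X-100) in acetate buffer pH 5.5 with DTT. 1.5 nM enzyme and compound were pre-mixed 15 min, then 2 uM Z-FR-AMC substrate added; reaction progress from fluorescence change between first and third reads (60 s).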
Active calls of the source: *; ? = inconclusive; / = no result given; & = joins results of further samples; [ ] = dose if it differs, or a comment. Unless noted, calls follow the shape of the dose curve; as a rule, active = well fitted curve in the direction sought with a large enough effect; inconclusive = small, poorly fitted or top-dose-only effect, or another doubt; inactive = no such curve, though single readings can be large; an effect the other way counts as inactive or inconclusive. Potency is read from the fitted curve at half-maximal effect.

SMILES | Cruzain Triton | 2A StopGo | NS1 function inh | LASV entry inh | SARS PLP yeast | MARV entry inh | RE007 growth inh | Cruzain noTriton
Cc1cnn(CCC(=O)NNC(=S)Nc2cccc(Cl)c2)c1 | 2.6% | -10.1% | 16.6% | 1.6% | 0.6% | 1.2% | -12.5% | 0.6%
CCc1cc(C(c2cccc(OC)c2)N2CCOCC2)c(NC(=O)c2ccccc2)s1 (configuration not stated) | -4.6% | -25.1% | -10.3% | -28.7% | -24.7% | 17.1% | 6.6% | -4.1%
O=C(Nc1ccccc1)Nc1cnccn1 | / | -5.6% | 2.4% | / | -1.1% | / | -11.2% | /
N#CCCN1CCn2c1nc1ccccc12 | -0.2% | 2.9% | 1.9% | 2.0% | 1.4% | 1.3%[46.1 µM] | 22.1% | 4.9%
COc1cc(NS(=O)(=O)c2ccc(NC(C)=O)cc2)nc(OC)n1 | 2.5% | -3.4% | 2.8% | -4.9% | 2.2% | ? | -4.8% | -1.6%
C=C(C)CC1Nc2ccccc2NC1CC(=C)C (configuration not stated) | 3.4% | 10.7% | 21.1% | 3.6% | -4.0% | -5.5% | -8.2% | -8.2%
CC(C)NC(=O)c1ccc2c(c1)nc1n2CCCCC1 | 2.7% | 28.7% | / | ? | / | / | / | -0.4%
COC(=O)c1c(-c2ccc(Cl)cc2)noc1N1CCN(c2ccc(OC)cc2)CC1 | 2.8% | ? | / | 5.4%[46.1 µM] | / | / | / | -6.6%
Cc1cccc(Nc2ccc(C(=O)N3CCOCC3)cn2)c1 | / | 36.4%[activator] | 8.9% | ? | 1.6% | -19.4%[46.1 µM] | 1.7% | /
COc1c(-c2ccc([N+](=O)[O-])cc2[N+](=O)[O-])c(=O)n(C)c(=O)n1C | / | -0.8% | 5.8% | / | 0.8% | / | 4.2% | /
O=[N+]([O-])c1cc(S(=O)(=O)C(F)(F)F)ccc1Sc1nc2ccccc2s1 | -6.7% | ? | -120.7% | ? | -32.2% | ? | 17.1% | 25.1µM*
CCCNC(=O)c1ccc2c(=O)c(O)c(-c3ccsc3)[nH]c2c1 | / | 14.2% | -45.1% | / | ? | / | -15.9% | /
O=C(CSc1ccc2nnc(-c3cccnc3)n2n1)NCc1ccc2c(c1)OCO2 | -3.9% | 4.4% | -4.4% | / | ? | -1.6% | -7.5% | -4.6%
CCN(CC)c1cc(C)c2cc(NC(=O)/C=C/c3ccccc3Cl)ccc2n1 | -22.0% | -15.9% | / | -17.7%[46.1 µM] | / | -19.6%[46.1 µM] | / | 13.8%
CS(=O)(=O)c1nc(-c2ccco2)cc(C(F)(F)F)n1 | -7.6% | / | -33.5% | / | -30.9% | / | / | 15.3%
COc1ccc(CCNC(=O)Cn2c(=O)n(-c3ccccc3)c(=O)c3c(C)c(C)sc32)cc1OC | -1.3% | 7.1% | / | -16.1%[46.1 µM] | / | ? | / | -8.3%
COc1cc(CN2CCN(C(O)(c3ccccc3)c3ccccc3)CC2)cc(OC)c1OC | / | -4.8% | 2.5% | -1.5%[46.1 µM] | 2.8% | ? | -11.9% | /
O=C(Oc1ccc2c3c(c(=O)oc2c1)CCCC3)c1ccco1 | -8.6% | -13.3% | -142.6% | 23.6% | -1.3% | 5.2% | ? | -5.7%
CCOc1ccc(CNC(=O)C2CCN(S(=O)(=O)c3ccc4c(ccn4C)c3)CC2)cc1 | -3.8% | -8.3% | / | -4.5%[46.1 µM] | / | / | / | -7.1%
COc1ccc(S(=O)(=O)N2CCCC2)cc1C(C)C | / | 13.0% | 2.6% | -7.7% | -1.2% | -20.9%[46.1 µM] | 2.3% | /
FC(F)Oc1ccc(NC(=S)NCc2ccccc2)cc1Cl | -6.5% | -17.3% | -65.4% | -15.1% | -9.4% | 11.7% | -11.5% | -5.4%
Cc1ccccc1NC(=O)CSc1nc(N)c2c3c(sc2n1)CSC(C)(C)C3 | -10.7% | ? | 27.4% | ? | 16.5% | -43.3% | -3.9% | -6.9%
Cc1cccc(NC(=O)C2CCCN(S(=O)(=O)c3c(C)[nH]c(=O)[nH]c3=O)C2)c1C (configuration not stated) | 6.9% | 11.8% | / | 12.6%[46.1 µM] | / | 22.0%[46.1 µM] | / | 0.5%
O=C(CSc1cccc2cccnc12)OCC(=O)c1ccccc1 | -4.7% | -9.2% | -64.6% | ? | 1.8% | ? | ? | -4.1%
CC1CCCN(C(=O)CN(C)S(=O)(=O)c2ccc3c(c2)c(=O)n(C)c(=O)n3C)C1 (configuration not stated) | / | 2.1% | 5.0% | / | 3.8% | / | 8.1% | /
(listing goes on)
SMILES | Cruzain Triton | 2A StopGo | NS1 function inh | LASV entry inh | SARS PLP yeast | MARV entry inh | RE007 growth inh | Cruzain noTriton
CCc1ccc(NC(=O)CCS(=O)(=O)c2ccc3c(c2)oc(=O)n3C)cc1 | -0.4% | -4.0% | / | 21.5%[46.1 µM] | / | / | / | -0.5%
CCc1nnc(SCC(=O)NCCC2=CCCCC2)nc1CC | / | -25.2% | -8.9% | / | -0.8% | / | -0.8% | /
Cc1ccccc1Cc1c(C)nc2ncnn2c1C | 1.0% | -3.5% | -11.1% | -0.5% | 17.2% | ? | 15.5% | 9.2%
Cc1cc(C)nc(N2CCCC(CCC(=O)NCc3ccc(F)c(F)c3)C2)n1 (configuration not stated) | / | -24.5% | -0.8% | / | 0.6% | -23.5%[46.1 µM] | 6.4% | /
Cc1ccc(-n2c(C)nn(CC#N)c2=O)cc1 | / | -3.7% | / | -6.2% | -9.4% | 2.6%[46.1 µM] | 6.3% | /
O=C(Nc1ccc(S(=O)(=O)N2CCOCC2)cc1)c1cccc(Br)c1 | / | -28.5% | 14.5% | -2.0% | 2.6% | 7.9% | -1.3% | /
CN(Cc1ccccc1)c1ccc([N+](=O)[O-])cc1C(=O)O | / | -3.6% | / | -4.8% | -2.5% | -2.2%[46.1 µM] | -5.9% | /
COc1cc(Cl)c(C)cc1NC(=O)Cn1c2ncccc2c(=O)n1-c1ccccc1 | 2.0% | -8.7% | / | ? | / | / | / | 2.4%
Cc1ccc(-c2nc3cccnc3s2)cc1NC(=O)Cc1ccccc1 | 3.0% | 34.3%[activator] | / | ? | / | / | / | 24.6%
COCC(C)NC(=O)c1cnn2c(C(F)F)cc(-c3ccccc3)nc12 (configuration not stated) | -0.7% | 0.0% | / | 1.5%[46.1 µM] | / | -2.7%[46.1 µM] | / | 3.2%
CN(CCO)CCC(=O)NC1(C)CS(=O)(=O)CC1S(=O)(=O)O (configuration not stated) | / | -21.7% | 8.7% | / | 0.0% | / | 1.7% | /
Cc1cc(NC(=O)CSc2nc3c(cc2C#N)CCCCC3)no1 | / | 23.6% | 3.8% | ? | 0.0% | ? | -16.0% | /
CCc1cccc(C)c1Nc1c(-c2ccc(N3CCOCC3)cc2)nc2ncccn12 | -12.6% | -21.6% | / | 3.3%[46.1 µM] | / | 10.2%[46.1 µM] | / | ?
CCOC(=O)C1=C(COC(=O)/C=C/c2ccc(OC)cc2)NC(=O)NC1C (configuration not stated) | / | ? | / | ? | -2.6% | -22.6% | 6.6% | /
CCCC1C(C(=O)OCC)=C(C)NC(C)=C1C(=O)OCC | -9.9% | 0.0% | 0.8% | -10.0% | -7.4% | ? | 0.5% | ?
COc1ccc(CSc2nnc3n(C)c(=O)c4c5c(sc4n23)CCCC5)cc1 | -1.1% | / | 1.7% | / | 4.6% | / | / | ?
CCC/C(O)=C1\C(=O)CCCC1=NCCCCCC(=O)O | 3.6% | 12.6% | 6.4% | 1.5% | 5.9% | 9.7% | 3.4% | -3.7%
CCCCN(CC)CCCNC(=O)c1cn(CC)c2ccc(S(=O)(=O)N3CCOCC3)cc2c1=O | -5.1% | -6.8% | / | -4.4%[46.1 µM] | / | -7.7%[46.1 µM] | / | -10.5%
COc1cc(C)ccc1OCCSc1nc2ccc(NC(C)=O)cc2s1 | -10.0% | 18.6% | / | -0.4%[46.1 µM] | / | -15.1%[46.1 µM] | / | ?
CC(=O)N(C)c1ccc(N=Nc2ccc3ncccc3c2)cc1 | / | -14.5% | / | 10µM* | / | ? | 15.0% | /
Nc1cccc2nsnc12 | / | -10.0% | 9.2% | -21.7% | 0.2% | ? | 2.6% | /
O=C(NCC1CCCO1)C(=Cc1cccc([N+](=O)[O-])c1)C(=O)NCC1CCCO1 (configuration not stated) | -3.9% | ? | -3.4% | ? | -2.6% | 11.6µM* | 3.9% | 4.6%
COC(=O)CN1C(=O)CSc2ccc(S(=O)(=O)Nc3c(C)cc(C)cc3C)cc21 | -5.8% | -16.3% | / | -2.8%[46.1 µM] | / | / | / | 15.0%
CCOCCCNC(=O)C(c1ccc(Cl)cc1)N1CCC2(CC1)OCCO2 (configuration not stated) | 3.1% | 14.8% | -22.9% | 2.2% | 0.1% | 1.8%&1.8% | 0.6% | -6.5%
C=CCNC(=O)CN1CCC(n2c(C)nc3cc(C(F)(F)F)ccc32)CC1 | 3.6% | -4.4% | 2.2% | 24.1% | 3.7% | 6.7% | 2.3% | 12.2%
COCCCNC(=O)CCc1c(C)nc2cc(-c3ccc(Cl)cc3)nn2c1C | -1.7% | 5.6% | / | -9.2%[46.1 µM] | / | ? | / | ?
CCC(CC)NC(=O)c1cc(OC)c(OC)cc1[N+](=O)[O-] | -3.7% | -16.5% | 7.3% | 17.5% | -3.9% | ? | 19.8% | -5.8%

Three structures out of the list, sorted by length of the SMILES, low to high:
SMILES | Cruzain Triton | 2A StopGo | NS1 function inh | LASV entry inh | SARS PLP yeast | MARV entry inh | RE007 growth inh | Cruzain noTriton
Cc1ccccc1Cc1c(C)nc2ncnn2c1C | 1.0% | -3.5% | -11.1% | -0.5% | 17.2% | ? | 15.5% | 9.2%
CS(=O)(=O)c1nc(-c2ccco2)cc(C(F)(F)F)n1 | -7.6% | / | -33.5% | / | -30.9% | / | / | 15.3%
CN(CCO)CCC(=O)NC1(C)CS(=O)(=O)CC1S(=O)(=O)O (configuration not stated) | / | -21.7% | 8.7% | / | 0.0% | / | 1.7% | /

High-throughput results from PubChem BioAssay.
